Bioassay records from PubChem.
Vero: Vero cell cytotoxicity, dose response, cytotoxicity control for Vif-APOBEC3G degradation inhibitor project, Vero cells (AID 1117358). CC50 in µM for hits, for the others viability, % at the top dose, mostly 40 µM. Vero viability, CellTiter-Glo ATP luminescence, 72 h; reference of the scale not given here. 7% of 2,300 active;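 active = viability down to 80% or less at some dose; inactive = above 80% at all doses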
An asterisk follows results filed as active. This is a subset; rates above refer to the full screens.

SMILES | Vero
COc1ccc(-c2nc3ccccc3n2OC(=O)N(C)C)cc1 | 83%
C=CCOc1ccc(CC2C(=O)N(C)C(=O)N(C)C2=O)cc1 | 96%
CCOc1ccccc1-n1c(O)c(C=Nc2ccc(N(CC)CC)cc2)c(=O)[nH]c1=O | 83%
Cc1ccc2nc3c(cc2c1)CC1(C(=O)N(C)C(=O)N(C)C1=O)C1CCCCN31 (centres undefined) | 91%
O=c1[nH]c(=O)n(Cc2ccco2)c(O)c1C=NCc1ccc2c(c1)OCO2 | 88%

Quoted from the listing for reference:
SMILES | Vero
C=CCOc1ccc(CC2C(=O)N(C)C(=O)N(C)C2=O)cc1 | 96%
CCOc1ccccc1-n1c(O)c(C=Nc2ccc(N(CC)CC)cc2)c(=O)[nH]c1=O | 83%
